HPGD block – qHTS Assay for Inhibitors of HPGD (15-Hydroxyprostaglandin Dehydrogenase) | actives 4.3% (n = 150,000) | 15-hydroxyprostaglandin dehydrogenase [NAD(+)] (Homo sapiens), P15428 | purified HPGD, NADH fluorescence kinetic, PGE2 substrate | Potency, µM, for the others: at the highest dose activity change, negative = inhibition, actives largely listed as inhibitors; active = well fitted inhibition curve with a large enough effect (not every such curve was filed as active); inconclusive = small, poorly fitted or top-dose-only effect, or another doubt; inactive = no such curve, though single readings can be large or run the other way;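 note: top concentration of the series not given in the record; plate controls included wells without enzyme; inactives centre near -10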
Target sequence (P15428 whole entry, looked up): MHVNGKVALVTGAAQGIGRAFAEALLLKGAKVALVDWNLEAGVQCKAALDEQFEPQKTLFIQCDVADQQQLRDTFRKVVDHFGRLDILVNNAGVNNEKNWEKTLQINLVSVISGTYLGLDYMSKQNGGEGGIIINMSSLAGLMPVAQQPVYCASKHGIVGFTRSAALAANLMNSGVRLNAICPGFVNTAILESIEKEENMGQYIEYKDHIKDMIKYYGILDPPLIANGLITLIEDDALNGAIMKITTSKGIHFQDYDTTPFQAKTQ
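20 nM HPGD preincubated 15 min at room temperature with compound in 50 mM Tris-HCl pH 8, 0.01% Tween 20. Started with 1 mM NAD+ and 30 uM prostaglandin E2; NADH fluorescence (360/450 nm) read 5 times over 30-s intervals, last minus first.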
* marks the source's active call; other numbers are inactive results; u = inconclusive. % is set by controls: 0 for no effect and ±100 for the full control effect; potency is the fitted concentration of half-maximal effect. An excerpt; the hit share may differ from the screen's.

HPGD block,SMILES
-9%,CC(C)[C@@H](CC(=O)N[C@@H]1CCCC[C@H]1C(=O)N[C@H](CC(=O)N[C@@H](CCC(=O)O)CC(=O)O)Cc1ccccc1)NC(=O)C[C@H](CO)NC(=O)[C@@H]1CNCC[C@H]1N
0%,Cc1cccc(OCCOCCN2CCNCC2)c1C
-11%,COc1cc2c(cc1OC)C(C1C(=O)CC(C)(C)CC1=O)N(C(=O)CCl)CC2 (centres undefined)
-1%,C=CCSC1=C(C#N)C(c2cccc(OC)c2)CC(=O)N1 (centres undefined)
u,Cc1ccccc1N1CCN(CCCOc2ccc3c(C)cc(=O)oc3c2)CC1
-3%,Cc1cc(C)c(NC(=O)COC(=O)c2ccc([N+](=O)[O-])s2)c(C)c1
u,CCn1cc(C(=O)NCc2ccc3c(c2)OCO3)c(=O)c2cc(F)c(N3CCN(C(=O)c4ccco4)CC3)cc21
-28%,O=C(Cc1ccc(F)cc1)NC1CCCC1

(list continues)
HPGD block,SMILES
2µM*,COc1ccc(OC)c(Nc2cc(C)nc3nc(C)nn23)c1
u,N/C(=N\OC(=O)COc1ccc(Br)cc1Cl)c1cccnc1
u,CCN(CC)CCCC(C)n1c(-c2ccccc2)nc2c(NCCO)nc(C)nc21 (centres undefined)
-12%,CCCOc1ccccc1NC(=O)CC1Nc2ccccc2NC1=O (centres undefined)
-10%,COc1ccc(/C=N/NC(=O)c2cccc(COCC(F)(F)C(F)F)c2)cc1
-1%,CCCCc1nn(-c2cc(Cl)ccc2OC)c2c1C(=O)CC(C)(C)C2
-12%,O=C(NCC(=O)N(Cc1cccs1)C(C(=O)NC1CCCC1)c1cccnc1)c1ccco1 (centres undefined)
-3%,CCOC(=S)SCC(=O)N1CCc2ccccc2C1C1C(=O)CC(C)(C)CC1=O (centres undefined)

Continued:
HPGD block,SMILES
-10%,CN1CCCC2(CCN(C(=O)c3cnccn3)CC2)C1
-3%,CCC(=O)Nc1nnc(SCCN2CCOCC2)s1
-13%,CCC(=O)N1CCCc2cc(S(=O)(=O)N3CCCc4ccccc43)ccc21
-8%,CC1CCCCC1NC(=O)C1CC=CCC1C(=O)O (centres undefined)
-10%,COc1cc(C)c(-c2[nH]ncc2-c2csc(C)n2)c(O)c1
-18%,O=C(C1CCCO1)N1CCN(Cc2c(O)ccc3ccccc23)CC1 (centres undefined)
-11%,CCOc1ccc(N(CC(=O)NC2CCCCC2)S(=O)(=O)c2c(C)noc2C)cc1
-1%,CCCc1nnc(NC(=O)CNc2ccc(F)cc2)s1

Further entries.
HPGD block,SMILES
0%,Cc1cc(NC(=O)CCCC(=O)N(CC(=O)NCCc2ccccc2)Cc2ccc(F)cc2)no1
-6%,O=C(Nc1ccc(S(=O)(=O)N2CCOCC2)cc1)c1ccc(Br)o1
-3%,C[C@]12CC[C@H]3c4ccc(O)cc4CC[C@@H]3[C@H]1CC[C@@H]2OP(=O)(O)O
u,O=C(NCCc1ccccc1)c1cnc2ccccn2c1=O
-4%,CC(NC(=O)CSc1nc2ccccc2c(=O)n1CCCO)c1ccccc1 (centres undefined)
-6%,CC(C)C(NC(=O)C1CCCCC1)C(=O)Nc1ccncc1 (centres undefined)
-2%,CCC(=O)OC1(C)C(=O)C=C2C=C(c3ccc(C#N)cc3)OC=C2C1=O (centres undefined)
-10%,c1ccc(-c2noc(-c3ccc4c(c3)OCO4)n2)nc1

Continued:
HPGD block,SMILES
-7%,NNc1nnc(-c2ccccc2)c(-c2ccccc2)n1
-26%,COc1ccc(CC(=O)N(Cc2cc3cc(OC)ccc3[nH]c2=O)C(C)C)cc1
35µM*,COc1ccc(CCNC(=O)Cc2cccs2)cc1
u,Cn1c2ccccc2c2cnn(CC(=O)O)c(=O)c21
-3%,O=C(Nc1ccccc1)c1cnc[nH]1
u,COc1cc2c(C)c3c4c(cc(OC)c(OC)c4c2cc1OC)CCN3C
-13%,COc1ccc(NC(=O)CSc2ccc(C)cc2)cc1
-1%,CCCCC(=O)Nc1cc(C(=O)NCCc2ccccc2)ccc1Cl

(continued)
HPGD block,SMILES
-3%,CCc1ccccc1NC(=O)c1cc(C2CC2)on1
u,Cc1nc(CS(=O)(=O)c2ccc(Cl)cc2)cc(Sc2ccc(Cl)cc2)n1
-19%,COc1cc(-c2nc(-c3ccc(-c4ccccc4)nc3OC)no2)cc(OC)c1OC
u,CCc1cc2c(=O)c(-c3nc4ccccc4n3C)c(C)oc2c(CN2CCOCC2)c1O
u,CCc1c2c(nc3ccc(OC)cc13)COC2
-2%,O=C(Nn1cnnc1)c1cc([N+](=O)[O-])cc([N+](=O)[O-])c1
-16%,CCCNC(=O)c1ccc2snnc2c1
u,O=C(Nc1ccc2nc(-c3ccco3)c(-c3ccco3)nc2c1)NC1CC1

Other structures.
HPGD block,SMILES
-8%,O=C(CCCN1C(=O)C2C3C=CC(C3)C2C1=O)N1CCN(c2ccccc2)CC1 (centres undefined)
-13%,COc1cccc(NC(=O)c2cc([N+](=O)[O-])ccc2NCc2cccnc2)c1
-23%,O=C(NS(=O)(=O)c1ccccc1)c1ccccc1O
u,CCN(CC)c1ccc(/C=N/NC(=O)Cc2cccs2)c(O)c1
-2%,COc1ccccc1C(=O)NNC(=O)c1ccccc1F
-13%,COc1cc(C(=O)Nc2ccc3c(c2)OCCO3)ccc1OC(C)C
u,COc1cc(/C=C/C(=O)NCc2cccnc2)cc(OC)c1OC
-10%,NCCCCCc1nnc(SCC(=O)c2ccc(Cl)cc2)o1

(further entries)
HPGD block,SMILES
-3%,CSc1ncccc1C(=O)OCC(=O)N(CC(C)C)C1CCS(=O)(=O)C1 (centres undefined)
0%,CCOC(=O)N1CCC(NC(=O)c2cc(S(=O)(=O)N(CC)CC)ccc2F)CC1
-19%,CCCCNC(=O)Nc1c(C(=O)OCC)[nH]c2ccccc12
-17%,CCOc1cc(/C=C/c2cc(C(=O)O)c3ccccc3n2)ccc1O
-8%,O=C1c2ccccc2C(=O)N1CCn1nc(Cl)nc1Cl
32µM*,COCC(C)n1c(C)cc(C(=O)CSc2nc3ccccc3c(=O)[nH]2)c1C (centres undefined)
0%,COC(=O)c1sc(S(=O)(=O)Nc2ccc(C)cc2)c(C(=O)OC)c1C
-7%,COc1ccccc1OCC(=O)NNC(=O)C(=O)N1CCCC1

4 entries from above, with each value named:
> CCOC(=O)N1CCC(NC(=O)c2cc(S(=O)(=O)N(CC)CC)ccc2F)CC1
  HPGD block: 0%

> COC(=O)c1sc(S(=O)(=O)Nc2ccc(C)cc2)c(C(=O)OC)c1C
  HPGD block: 0%

> COCC(C)n1c(C)cc(C(=O)CSc2nc3ccccc3c(=O)[nH]2)c1C (centres undefined)
  HPGD block: 32µM*

> CCCCNC(=O)Nc1c(C(=O)OCC)[nH]c2ccccc12
  HPGD block: -19%

Continuation.
HPGD block,SMILES
1%,O=C(c1ccco1)n1nc(NCc2ccccc2)nc1NCc1ccccc1
-10%,Cc1ccc(NC(=O)c2cc(NC(=O)C3CC=CCC3C(=O)O)ccc2N2CCOCC2)cc1 (centres undefined)
-5%,COCCn1c(C)cc(C(=O)COC(=O)CNC(=O)c2ccccc2)c1C
-5%,CC(CN1CCOCC1)C(=O)c1ccccc1 (centres undefined)
1%,Cc1cc2ncn(C(=O)N3CCCCCC3)c2cc1C
-20%,Cc1ccc(C)c(N(CC(=O)N/N=C/c2ccc(-c3ccc([N+](=O)[O-])cc3)o2)S(=O)(=O)c2ccccc2)c1
-11%,Cc1sc2cc3c(c(C(=O)c4ccccc4)[n+]2c1C)-c1cccc2cccc-3c12
-1%,Cc1nc2ccccc2nc1-c1ccc(N=[N+]([O-])c2ccc(-c3nc4ccccc4nc3C)cc2)cc1

The results go on:
HPGD block,SMILES
-21%,Cc1cc(C(=O)OCC(=O)c2cccc([N+](=O)[O-])c2)c2cccc(C)c2n1
u,CC(=O)NCC(=O)OCC(=O)Nc1ccc(C(C)=O)cc1
-14%,O=C(O)CCCn1nc(-c2ccccc2)c2ccccc21
-17%,CC12CC3(C)CC(C)(C1)CC(C(=O)NC(=S)NC(C)(C)C)(C2)C3
-6%,C[N+]1(CC(=O)Nc2ccc(F)cc2)CCN(C(=O)c2ccco2)CC1
-7%,CCC(NS(=O)(=O)c1ccc(C)cc1)C(=O)N1CCC2(O)CCCCC2C1 (centres undefined)
-20%,N#Cc1c(NC(=O)CSc2nc(-c3ccccc3)cc(C(F)(F)F)n2)sc2c1CCC2
-2%,CC(C)C(O)(C#CCN1CCCC1)c1ccccc1 (centres undefined)

(continued)
HPGD block,SMILES
u,O=C(Nc1ccccc1OC(F)F)c1oc2ccccc2c1COc1ccccc1
-21%,CC(C)CCNC(=O)/C=C/c1ccc(Br)cc1
u,COc1cccc(-n2c(SCC(=O)Nc3cc(C)on3)nc3c([nH]c4ccccc43)c2=O)c1
-14%,CN(Cc1ccccc1)c1nc(-c2ccc([N+](=O)[O-])cc2)nc2ccccc12
-6%,O=C1CSC(c2ccccn2)N1c1ccc2ccccc2c1 (centres undefined)
22µM*,CCC(C)NC(=O)c1ccc2c(SCC(=O)O)c3c(nc2c1)CCCC3 (centres undefined)
u,COc1ccc(/C=C/C(=O)Nc2nonc2NC(C)=O)cc1
-10%,Cc1cc2ccccc2cc1CN1CCOCC1

Fetched one by one from the list above:
HPGD block,SMILES
-13%,CCC(=O)N1CCCc2cc(S(=O)(=O)N3CCCc4ccccc43)ccc21
-2%,CC(C)C(O)(C#CCN1CCCC1)c1ccccc1 (centres undefined)
22µM*,CCC(C)NC(=O)c1ccc2c(SCC(=O)O)c3c(nc2c1)CCCC3 (centres undefined)
-1%,C=CCSC1=C(C#N)C(c2cccc(OC)c2)CC(=O)N1 (centres undefined)
-28%,O=C(Cc1ccc(F)cc1)NC1CCCC1
-3%,CCOC(=S)SCC(=O)N1CCc2ccccc2C1C1C(=O)CC(C)(C)CC1=O (centres undefined)
-10%,COc1ccc(/C=N/NC(=O)c2cccc(COCC(F)(F)C(F)F)c2)cc1

Next section:
HPGD block,SMILES
-6%,O=C1CCCN1CC(O)CS(=O)(=O)c1ccccc1 (centres undefined)
-10%,CCCCC1=CC2=CC(=O)C(C)(OC(=O)CC)C(=O)C2=CN1Cc1ccc(OC)cc1 (centres undefined)
-10%,N=C1/C(=C\c2ccc(-c3cc(Cl)cc(Cl)c3)o2)C(=O)N=C2SC=C(c3ccccc3)N12
6%,Cc1ccc(N(C(=O)C2CCC(=O)N2)C2(C(=O)NC3CCCC3)CCCCC2)cc1 (centres undefined)
-4%,CCOc1cc(C(c2c(C)[nH][nH]c2=O)c2c(C)[nH][nH]c2=O)ccc1O
-16%,O=C(c1ccco1)N1CCN(Cc2nc3ccc([N+](=O)[O-])cc3c(=O)n2-c2ccccc2F)CC1
-2%,CCCOc1cccc(NC(=O)c2cc(C)oc2C)c1
0%,O=S(=O)(N1CCCCC1)N1CCN(c2ccc(F)cc2)CC1

More structures
HPGD block,SMILES
-10%,NS(=O)(=O)c1ccc(CCNC(=O)c2cc(-c3ccccc3)nc3ccccc23)cc1
1%,O=C(Cc1ccc(S(=O)(=O)N2CCOCC2)s1)NCCC(c1ccccc1)c1ccccc1
22µM*,COc1ccc(OCCSc2nnc(Cc3cccc4ccccc34)n2N)cc1
u,CC(=O)c1ccc(N2CCN(C(=O)c3cc4c(-c5ccccc5F)nn(C)c4s3)CC2)cc1
-3%,COC(=O)[C@@]1(Cc2ccc(OC)cc2)[C@H]2c3cc(C(=O)N4CCCC4)n(CCN4CCOCC4)c3C[C@H]2CN1C(=O)c1ccccc1
1%,CCCS(=O)(=O)N1CCN(CCCc2ccccc2)CC1
-3%,CN(C(=O)COc1ccccc1C(=O)NCCOc1ccccc1)c1ccccc1
-3%,COc1ccc(/C(N)=N/OC(=O)C2CCC(=O)N2S(=O)(=O)c2ccc(C)cc2)cc1OC (centres undefined)

Continuation:
HPGD block,SMILES
-5%,COc1cc(NC(=O)CN2C(=O)NC(C)(CC(C)C)C2=O)cc(OC)c1 (centres undefined)
-14%,CCCCOC(=O)c1cccc(NC(=O)CC)c1
1%,COc1cccc(-c2cc(C(F)(F)F)nc(N3CCN(c4ccccc4)CC3)n2)c1
-7%,O=C(CCN1C(=O)c2ccccc2C1=O)Nc1cc(F)ccc1F
-5%,Cc1cccc(N(NC(=O)C(C)(C)O)C(=O)c2ccccc2)c1
-2%,O=C(CSc1nnc(-c2ccco2)n1CC1CCCO1)N1CCCCC1 (centres undefined)
u,O=C1Nc2ccccc2C12Nc1ccccc1S2 (centres undefined)
-12%,COc1ccc(C(CC(=O)c2ccc(C)cc2)Nc2ccc([N+](=O)[O-])cc2)cc1 (centres undefined)

Remaining list, next part:
HPGD block,SMILES
-19%,CCn1cc(C2=NCCO2)c2ccccc21
1%,Cc1cc(C)c(S(=O)(=O)N2CCOC2CNC(=O)C(=O)NCc2cccnc2)c(C)c1 (centres undefined)
-27%,CC(=O)/C(=N/Nc1cccc(Cl)c1)N1CCOCC1
-4%,CSc1nc(C)c2c(n1)N(c1ccc(C(F)(F)F)cc1)CC2
-7%,CCOC(=O)N1CCN(C(=O)c2cn(CC)c3ccc(S(=O)(=O)N4CCCC4)cc3c2=O)CC1
3%,Cc1ccc2oc(=O)c3cnn(CC(=O)N4CCCCCC4)c3c2c1
-18%,CC12CCC(C(=O)NCc3ccc(Cl)cc3)(OC1=O)C2(C)C (centres undefined)
-7%,CC(C)CC1NC(=S)N(Cc2ccccc2)C1=O (centres undefined)

Continued.
HPGD block,SMILES
-15%,CC1(C)CC(=O)CC(=Nc2ccc(C(=O)O)cc2)C1
-10%,Cn1nc(-c2ccccc2)c(-c2nc(-c3ccccc3Cl)no2)c1Cl
-6%,Cc1ccccc1Cn1cc(S(=O)(=O)CC(=O)N2CCCCC2)c2ccccc21
3%,O=C(COC(=O)c1cnccn1)NCc1ccccc1
